High-throughput results as filed in PubChem BioAssay.
Mtb hypoxia rep: PubChem AID 1159583. 0.1% of 300,000 active. fluorescence inhibition, % (concentration not given with the values). M. tuberculosis hypoxia-regulated fluorescent reporter, fluorescence;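 active = 35 to 45% if threefold the growth effect, above 45% if 1.5-fold the growth effect; inactive = the rest, general growth blockers included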;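 note: wells of about 50 µL received 100 nL stock; 0% = vehicle wells and 100% = reference inhibitor wells; whole bacteria with a GFP reporter of the hypoxia response; strong numbers were not always called active; many hits fall short of the cut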
BJeLR viability: MLPCN primary cell-based screen for lethality selective to Ras in HRASV12 cells; BJeLR (HRASV12) viability, CellTiter-Glo ATP luminescence, 48 h; reference of the scale not given here; inhibition, % (concentration not given with the values); 0.17% of 300,000 active; AID 1554, 2009;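 active = replicate mean above 50%; inconclusive = above 50% but judged a plate artefact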;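 note: 50 nL library stock added to about 25 µL; numbers are from one replicate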
Sa RN4220 lethal: growth inhibition of S. aureus RN4220, primary screen, OD600; inhibition, % (test concentration not listed); AID 1259311, 2017; 0.33% of 330,000 active; 16 h;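 active = z-score of -3 or lower and OD600 up to 0.18 on both plates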;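 note: plate controls were untreated cells for no effect and reference antibiotic for full effect; stock transfer was 100 nL into about 80 µL; one replicate is shown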
ugtP null kill: growth inhibition of ugtP-null S. aureus, primary screen, RN4220 ugtP deletion, OD600 | growth inhibition, % (no concentration beside the values) | 0.54% of 330,000 active | 16 h; some inactives read as strong as hits;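 active = z-score under -3 and OD600 up to 0.15 on both plates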;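 note: plate controls were untreated wells for no effect and antibiotic for full effect; wells of about 80 µL received 100 nL stock; the first replicate is given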
Autofluor counter: counter-screen for toxin protease inhibitors: compound fluorescence | compound autofluorescence counterscreen, microsphere flow cytometry; hits give high values | 3.1% of 360,000 active | fluorescence intensity (no concentration beside the values) | AID 624483;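 active = at least 3 SD above the mean of all compounds, about 16000 in these data; inconclusive = too few beads counted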;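 note: 100 nL of 1 mM stock went into each well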
PrP 5UTR inh: inhibition of PrP 5' UTR reporter expression | 0.35% of 340,000 active | inhibition, % (test concentration not listed) | cell-based PrP 5' UTR mRNA reporter, plate reader;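 active = every replicate at 50% or more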;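 note: 0 = median of the neutral control wells; tested in H4 reporter cells; numbers are from one replicate; inactives centre near -14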
Mtb hypoxia rep growth: also measured in Mtb hypoxia rep; calls as there; growth inhibition, %; measured here: M. tuberculosis growth (absorbance);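 0% = vehicle and 100% = reference antibiotic; read after six days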
The depositor's hits bear a star; ? = inconclusive; nt = not tested or not shown; & = joins results of further samples.

The opening 15 records (preview)
no. | Molecule | Mtb hypoxia rep | Mtb hypoxia rep growth | BJeLR viability | Sa RN4220 lethal | ugtP null kill | Autofluor counter | PrP 5UTR inh
1 | O=C1CC(c2ccco2)CC(O)=C1C=Nc1ccccc1-c1ccccc1 (stereo not drawn) | 0 | 3 | 3 | 22 | 7 | 6164 | 1
2 | C#CCOCCOCCOCCNc1nc(N2CCOCC2)nc(N2CCN(C(=O)C(CCCN=C(N)N)n3cc(C(N)C(C)CC)nn3)CC2)n1 (stereo not drawn) | 7 | 16 | nt | 3.4 | -2 | nt | nt
3 | Cc1ccc(CNC(C)(C)CO)cc1 | 0 | 6 | 2 | 1.2 | 1 | 2545 | -26
4 | Cc1ccc(NC(=O)CCCc2nc3ccccc3s2)c(O)c1 | -3 | 3 | 11 | -0.8 | 3 | 4083 | -17
5 | C/C(=C\[C@@H](NP(=O)(c1ccccc1)c1ccccc1)c1ccccc1)CO[Si](c1ccccc1)(c1ccccc1)C(C)(C)C | nt | nt | 1 | nt | nt | 3073 | -5
6 | Cc1ccc(C(=O)NCCCNC(=O)COc2ccc(C)c(C)c2)cn1 | 10 | -7 | -3 | 0.3 | 3 | 3052 | -12
7 | CCOC(=O)C(C)Oc1c(C(=O)OC)sc2ncccc12 (stereo not drawn) | 16 | 9 | 2 | 1.6 | 5 | 4529 | 0
8 | COC(C/C=C\[C@H](O)[C@@H](C)OCc1ccccc1)OC | nt | nt | 11 | nt | nt | 3674 | -21
9 | CS(=O)(=O)c1ccc(C(=O)OCC(=O)NC2CCS(=O)(=O)C2)cc1[N+](=O)[O-] (stereo not drawn) | 0 | 5 | 4 | 0.6 | 2 | 4030 | -4
10 | S=c1[nH]nc(C(c2ccccc2)C2CCCCC2)o1 (stereo not drawn) | 7 | 2 | 0 | 7.9 | 8 | 5003 | -18
11 | CCCCC(=O)N/N=C/c1c(O)n(CC)c(=S)[nH]c1=O | -1 | 3 | 9 | -1.1 | 11 | 2098 | -6
12 | CCC(=O)c1ccc(N2CCN(C(=O)c3cc([N+](=O)[O-])ccc3F)CC2)c(F)c1 | 3 | 2 | 4 | 5.4 | 4 | 3141 | -7
13 | COCCn1c(SCc2nnc(-c3ccccc3)o2)nc2sc3c(c2c1=O)CCC3 | 0 | -7 | -8 | 6.6 | -2 | 8914 | -10
14 | C#CCOc1ccc(/C=C2/C(=O)ON=C2C)cc1OCC | 11 | 0 | 1 | -1.6 | 4 | 3531 | -17
15 | CN(C(=O)CSc1nc(-c2ccccc2)c(-c2ccccc2)o1)C1CCS(=O)(=O)C1 (stereo not drawn) | 1 | -4 | -1 | 0.9 | 11 | 2695 | -16

All compounds of this part (from the top)
no. | Molecule | Mtb hypoxia rep | Mtb hypoxia rep growth | BJeLR viability | Sa RN4220 lethal | ugtP null kill | Autofluor counter | PrP 5UTR inh
1 | O=C1CC(c2ccco2)CC(O)=C1C=Nc1ccccc1-c1ccccc1 (stereo not drawn) | 0 | 3 | 3 | 22 | 7 | 6164 | 1
2 | C#CCOCCOCCOCCNc1nc(N2CCOCC2)nc(N2CCN(C(=O)C(CCCN=C(N)N)n3cc(C(N)C(C)CC)nn3)CC2)n1 (stereo not drawn) | 7 | 16 | nt | 3.4 | -2 | nt | nt
3 | Cc1ccc(CNC(C)(C)CO)cc1 | 0 | 6 | 2 | 1.2 | 1 | 2545 | -26
4 | Cc1ccc(NC(=O)CCCc2nc3ccccc3s2)c(O)c1 | -3 | 3 | 11 | -0.8 | 3 | 4083 | -17
5 | C/C(=C\[C@@H](NP(=O)(c1ccccc1)c1ccccc1)c1ccccc1)CO[Si](c1ccccc1)(c1ccccc1)C(C)(C)C | nt | nt | 1 | nt | nt | 3073 | -5
6 | Cc1ccc(C(=O)NCCCNC(=O)COc2ccc(C)c(C)c2)cn1 | 10 | -7 | -3 | 0.3 | 3 | 3052 | -12
7 | CCOC(=O)C(C)Oc1c(C(=O)OC)sc2ncccc12 (stereo not drawn) | 16 | 9 | 2 | 1.6 | 5 | 4529 | 0
8 | COC(C/C=C\[C@H](O)[C@@H](C)OCc1ccccc1)OC | nt | nt | 11 | nt | nt | 3674 | -21
9 | CS(=O)(=O)c1ccc(C(=O)OCC(=O)NC2CCS(=O)(=O)C2)cc1[N+](=O)[O-] (stereo not drawn) | 0 | 5 | 4 | 0.6 | 2 | 4030 | -4
10 | S=c1[nH]nc(C(c2ccccc2)C2CCCCC2)o1 (stereo not drawn) | 7 | 2 | 0 | 7.9 | 8 | 5003 | -18
11 | CCCCC(=O)N/N=C/c1c(O)n(CC)c(=S)[nH]c1=O | -1 | 3 | 9 | -1.1 | 11 | 2098 | -6
12 | CCC(=O)c1ccc(N2CCN(C(=O)c3cc([N+](=O)[O-])ccc3F)CC2)c(F)c1 | 3 | 2 | 4 | 5.4 | 4 | 3141 | -7
13 | COCCn1c(SCc2nnc(-c3ccccc3)o2)nc2sc3c(c2c1=O)CCC3 | 0 | -7 | -8 | 6.6 | -2 | 8914 | -10
14 | C#CCOc1ccc(/C=C2/C(=O)ON=C2C)cc1OCC | 11 | 0 | 1 | -1.6 | 4 | 3531 | -17
15 | CN(C(=O)CSc1nc(-c2ccccc2)c(-c2ccccc2)o1)C1CCS(=O)(=O)C1 (stereo not drawn) | 1 | -4 | -1 | 0.9 | 11 | 2695 | -16
16 | COc1ccccc1N1N=C(C(=O)c2ccccc2)C2C(=O)N(c3ccc(Br)cc3)C(=O)C21 (stereo not drawn) | 3 | -1 | -17 | -1.3 | 2 | 5422 | nt
17 | O=C(O)CCCNC(=O)/C(=C\C=C\c1ccccc1)NC(=O)c1ccccc1Cl | -8 | -5 | 1 | 4.1 | 0 | 4085 | -42
18 | CN(C)CCCN(C(=O)c1ccc(S(=O)(=O)N2CCCCCC2)cc1)c1nc2ccc(Br)cc2s1 | 1 | -3 | -1 | 0.8 | -21 | 4304 | 8
19 | CCCCCC(=O)N1CCN(CCN=CC2=C(O)CC(c3ccc(OC)cc3)CC2=O)CC1 (stereo not drawn) | -3&3 | -2&6 | -2 | 8.4&3.0 | -6&0 | 3654&3390 | -16&-27
20 | CCn1c(SCc2ccc(F)cc2)nnc1-c1nn(-c2ccccc2)ccc1=O | nt | nt | 3 | 12 | -5 | 3633 | -1
21 | O=C1C(CCC(O)c2ccc(F)cc2)C(c2ccc(O)cc2)N1c1ccc(F)cc1 (stereo not drawn) | 0 | -2 | nt | -4.0 | -14 | nt | nt
22 | O=C(c1cccc(NC2=NC3CS(=O)(=O)CC3S2)c1)N1CCN(c2cccc(Cl)c2)CC1 (stereo not drawn) | 4 | 12 | -15 | -7.1 | -5 | 5658 | -9
23 | Cc1cc2cc(CN(CC3CCCO3)C(=S)Nc3ccccc3)c(=O)[nH]c2cc1C (stereo not drawn) | nt | nt | 14 | nt | nt | 2716 | -21
24 | Cc1cccc(N(Cc2ccc(Cl)cc2)S(C)(=O)=O)c1 | 1 | 0 | 0 | 4.4 | 8 | 4003 | -17
25 | COc1ccc(CSc2nc3ccccc3[nH]2)cc1 | nt | nt | 15 | 2.4 | -3 | 3030 | -131
26 | O=C(CCS(=O)(=O)Cc1ccccc1F)NCc1ccccc1Cl | 14 | 0 | 2 | 0.4 | 9 | 4588 | -16
27 | Cn1c(NCCCO)nc2c1c(=O)n(Cc1ccccc1F)c(=O)n2C | 7 | 11 | -4 | 5.9 | -3 | 9274 | -24
28 | O=C(c1cc(S(=O)(=O)N2CCCCC2)ccc1F)N1CCC2(CC1)OCCO2 | 2 | 6 | -4 | 0.9 | 6 | 12525 | 0
29 | CCn1ccc(C(=O)Nc2ncc(C)s2)n1 | 8 | 2 | 1 | 3.4 | 8 | 6003 | -39
30 | CC(C)(C)c1cc(C(=O)N/N=C/c2ccncc2)n[nH]1 | nt | nt | 6 | nt | nt | ? | -19
31 | CN(Cc1ccccc1)Cc1nc2c([nH]1)c(=O)n(C)c(=O)n2C | -4 | 7 | -6 | -0.1 | -5 | 10235 | 7
32 | CNC(C(=O)c1ccccc1)C(OC)c1ccccc1 (stereo not drawn) | nt | nt | -1 | 0.1 | -3 | 4594 | -5
33 | C#CCNC(=O)C1=CC(c2ccccc2)C(CCCO)C(OCC)O1 (stereo not drawn) | -2&3 | -10&5 | nt | -1.4&2.6 | -7&-11 | nt | nt
34 | COc1ccc(CCNC(=O)c2cc3cc(F)ccc3nc2C)cc1OC | 16 | 3 | 4 | 0.6 | 6 | 5514 | -38
35 | COc1ccc(NC(=O)c2cc(-c3ccc(OC)c(OC)c3)nc3ccccc23)c(OC)c1 | 4 | 11 | 5 | -1.2 | -2 | 4156 | -12
36 | O=C1Nc2ccc(Cl)cc2C(C#CC2CC2)(C(F)(F)F)O1 (stereo not drawn) | 5 | 4 | 1 | 0.4 | -2 | 5696 | -21
37 | N#Cc1c(N)nc2c(c1N)CC(=O)N2c1ccccc1-c1ccccc1 | nt | nt | 6 | 3.3 | -9 | 4738 | -2
38 | Cc1nnc(-c2cccc(Br)c2)c2cn(-c3ccc(Br)cc3)nc12 | 10 | 8 | -6 | -0.7 | -43 | 17435* | -14
39 | S=C(NCc1ccccc1)N1CCN(C(=S)NCc2ccccc2)CC1 | 0 | -1 | nt | 6.5 | 1 | 3448 | -1
40 | COc1cccc2cc(S(=O)(=O)c3ccc(C)cc3)c(=NNS(=O)(=O)c3ccc(C)cc3)oc12 | -10 | -1 | nt | 1.4 | -3 | nt | nt
41 | O=C(CN1CCN(S(=O)(=O)c2ccccc2)CC1)Nc1ccc([N+](=O)[O-])cc1 | -7 | -6 | 0 | 6.0 | 7 | 2104 | -7
42 | C/C(=N\NC(=O)c1ccc(CN2CCOCC2)cc1)c1cccc([N+](=O)[O-])c1 | nt | nt | -2 | nt | nt | 2023 | 3
43 | O=C(c1ccc([N+](=O)[O-])o1)N1CCN(c2nc3c(Cl)cccc3s2)CC1 | nt | nt | 1 | 15 | 21 | 5298 | -27
44 | CC(=O)N1c2ccccc2C2CCCCC21 (stereo not drawn) | 8&10 | 3&-6 | nt | 5.4&6.5 | 0&5 | nt | nt
45 | CC(C)NC(=O)N1CCC(n2nccc2NC(=O)CCOc2ccccc2)CC1 | 0 | 5 | -6 | -1.7 | -1 | 5611 | 7
46 | Cc1ccc(-c2csc(NCCc3nc4cc(Cl)c(Cl)cc4n3CCOCCO)n2)cc1 | 2 | -2 | -1 | -1.9 | 10 | 3947 | -9
47 | CCOC(=O)C1=C(COC(=O)CCOc2ccc(OC)cc2)NC(=O)NC1C (stereo not drawn) | 5 | 9 | nt | 1.5 | 3 | 8653 | -11
48 | Cn1c2ccccc2c2cc([N+](=O)[O-])ccc21 | 7 | 6 | 0 | -1.4 | 15 | 5344 | -17
49 | CC1(C)Cc2c(sc(NC(=O)C(C)(C)C)c2C#N)C(C)(C)N1 | 5 | 7 | -2 | 1.9 | -8 | 3185 | -14
50 | Cc1cc(C)cc(N(C(=O)c2nsc(Cl)c2Cl)C(C(=O)NC2CCCC2)c2ccc(O)cc2)c1 (stereo not drawn) | 0 | 10 | 5 | 3.3 | -6 | 2152 | -1
51 | O=C(CN(C(=O)c1ccc(Cl)cc1)N1C(=O)C2C3C=CC(C3)C2C1=O)c1cccs1 (stereo not drawn) | 11 | 7 | -7 | 6.2 | 3 | 3837 | -37
52 | O=S(=O)(NC1CCCCC1N1CCCCC1)c1ccccc1 (stereo not drawn) | 1 | 3 | 6 | 2.4 | 1 | 4683 | -12
53 | CC1COC(Cn2c3ccccc3c3ccccc32)O1 (stereo not drawn) | 8 | 1 | -8 | 1.3 | 7 | 4818 | -23
54 | C/C(=N\NC(=O)COc1ccc(C)cc1Br)c1cc([N+](=O)[O-])cs1 | nt | nt | -1 | nt | nt | 3120 | -15
55 | Cc1ccc(CSCCNC(=O)/C=C/c2ccccc2Cl)cc1 | 17 | 5 | 4 | -3.2 | -4 | 9182 | -17
56 | CCOC(=O)C1=C(C)NC(=O)CC1c1ccccc1OC (stereo not drawn) | -1 | 6 | nt | 1.5 | 3 | 4271 | -6
57 | Cc1cc(SCC(=O)NN=Cc2ccc(O)cc2O)nc2ccccc12 | 14 | 6 | nt | 6.2 | 1 | nt | nt
